UUG fidelity: yeast start codon fidelity modulation | AID 602363 | activity score, % at 18.7 µM | S. cerevisiae UUG-firefly luciferase reporter, luminescence/redox ratio | 350,000 tested, 0.13% active;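 active = replicate mean at a twofold rise or more, about +100% in these data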;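 also: firefly luciferase made from a UUG start codon reports start codon fidelity; reporter light over untreated wells divided by growth signal over untreated wells; some hits fall short of that in this replicate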
HIV Env fusion: blocks HIV Env-driven cell-cell fusion; inhibition, % at 12.3 µM; 360,000 tested, 1.1% active; HeLa-JRFL Env/CEM21 cell fusion, luciferase;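 active = mean replicate inhibition score of at least 50 and every replicate individually at or above 50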;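 also: 0% = plate neutral controls and 100% = maraviroc near 300 nM; one replicate is shown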
MT1-MMP act inh: blocks activation of human MT1-MMP; P50281; HT1080 RFP-PRO-GFP cells, GFP/RFP ratio fluorescence, overnight; percent of plate control window, DMSO zero; GFP/RFP ratio change, % at 20 µM; 360,000 tested, 0.061% active; AID 651647;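 active = GFP/RFP ratio change of at least 30% with cell ATP level not reduced by more than half and red fluorescence within 50% of control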; also: strong numbers were not always called active
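Assay system: HT1080 cells carrying an RFP-PRO-GFP reporter | Dosing: Single dose of 20 µM compound, 1% DMSO final | Incubation: Cells overnight before dosing, compound overnight, 37 °C, 5% CO2 | Evaluation: GFP/RFP fluorescence ratio | Control set: DMSO and RFP-L50D-GFP cell wells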
PABP polyA inh: PABP-poly(A) binding inhibition. P11940. PABP-poly(A) RNA binding, fluorescence polarization. inhibition, % at 35 µM. 290,000 tested, 1% active;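 active = 50% or more with normal probe brightness, or confirmed in later tests; about a fifth of its hits are not listed in these tables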;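 also: calls also rest on retests at 20 µM and on dose response follow-up; controls were probe without protein and protein plus probe with vehicle; some compounds called inactive have numbers as strong as hits; many hits fall short of the cut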
Target sequence (P11940 whole entry, looked up): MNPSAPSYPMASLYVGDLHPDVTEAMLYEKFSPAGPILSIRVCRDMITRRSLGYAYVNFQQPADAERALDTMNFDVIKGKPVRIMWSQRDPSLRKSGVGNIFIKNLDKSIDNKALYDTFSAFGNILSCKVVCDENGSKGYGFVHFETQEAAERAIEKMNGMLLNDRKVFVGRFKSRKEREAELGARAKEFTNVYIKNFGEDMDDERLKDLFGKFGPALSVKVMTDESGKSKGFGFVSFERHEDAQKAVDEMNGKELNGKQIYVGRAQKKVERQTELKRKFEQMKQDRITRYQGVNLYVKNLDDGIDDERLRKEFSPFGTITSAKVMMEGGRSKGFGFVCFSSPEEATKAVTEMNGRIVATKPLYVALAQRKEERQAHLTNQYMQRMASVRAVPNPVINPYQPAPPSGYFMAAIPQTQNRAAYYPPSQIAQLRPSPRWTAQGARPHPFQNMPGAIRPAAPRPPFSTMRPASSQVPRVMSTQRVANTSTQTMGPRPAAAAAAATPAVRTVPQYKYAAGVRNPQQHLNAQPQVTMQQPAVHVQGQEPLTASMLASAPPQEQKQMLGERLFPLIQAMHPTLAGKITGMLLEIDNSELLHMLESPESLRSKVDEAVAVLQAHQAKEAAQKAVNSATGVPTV
eIF4H inh: inhibitors of RNA binding by human eIF4H | 290,000 tested, 0.94% active | AID 2012 | Q15056 | eIF4H fluorescence polarization binding assay | inhibition, % at 35 µM;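 active = 50% or more with normal probe brightness, or confirmed in later tests; about a fifth of its hits are not listed in these tables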;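 also: calls also rest on retests at 20 µM and on dose response follow-up; 0% = protein and probe with vehicle and 100% = probe without protein; strong numbers were not always called active; many hits fall short of the cut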
Rce1 inh: blocks yeast Ras-converting enzyme | Q03530 | yeast membranes, quenched prenylated peptide cleavage fluorescence | calls only | 290,000 tested, 0.27% active | AID 2563;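 active = fall in fluorescence gain of 50% or more versus controls, with final raw signal at or below 3038400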;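 also: plate controls were neutral control wells for no effect and wells lacking membranes for full effect; tested at 10 µM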
Target sequence (Q03530 whole entry, looked up): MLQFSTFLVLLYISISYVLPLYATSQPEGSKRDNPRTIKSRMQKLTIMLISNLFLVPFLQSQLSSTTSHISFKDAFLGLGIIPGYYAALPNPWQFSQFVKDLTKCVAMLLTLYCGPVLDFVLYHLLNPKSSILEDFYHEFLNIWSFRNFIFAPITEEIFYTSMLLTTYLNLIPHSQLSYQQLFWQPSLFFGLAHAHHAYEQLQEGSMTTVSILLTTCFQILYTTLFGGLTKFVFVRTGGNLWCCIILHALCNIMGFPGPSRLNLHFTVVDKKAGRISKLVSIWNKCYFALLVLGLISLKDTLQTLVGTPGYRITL
CSC inhib: blocks cancer stem cells. 300,000 tested, 1.1% active. cancer stem cell-like cells viability, luminescence. inhibition, % at 7.5 µM;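 active = mean at 75% or more and at least half the replicates too; tested in HMLE shEcad cells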;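 also: 0% = median of negative and 100% = median of positive control wells; the first replicate is given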
eIF4H inh retest: second read-out of eIF4H inh, no call of its own (marks repeat the call); inhibition, %; compound at 20 µM; confirmation average;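 mean of two retest wells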
PABP polyA inh retest: recorded beside PABP polyA inh, whose call it bears; inhibition, %; compound at 20 µM; confirmation repeats;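 mean of two retest wells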
MT1-MMP act inh RFP: also measured in MT1-MMP act inh; calls as there; RFP signal change, %; measured here: RFP expression control read;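 0 = vehicle wells; hits needed this value within 50% of zero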
An asterisk follows results filed as active; i = inactive; nt = not tested or not shown.

SMILES	UUG fidelity	HIV Env fusion	MT1-MMP act inh	MT1-MMP act inh RFP	PABP polyA inh	eIF4H inh	Rce1 inh	CSC inhib	others
CCO/C(C)=N/n1c2nc3ccccc3nc2c2c(=O)n(CC(C)C)c(C)nc21	2.6	-24.1	2.8	-2.7	-5.9	5.0	i	-9.4
O=C(Nc1cccc(NC(=O)c2ccco2)n1)c1ccco1	-7.2	-1.4	-1.4	4.0	3.5	7.0	nt	-7.5
COc1ccc(OCc2nnc(NC(=O)Nc3ccccc3F)s2)cc1	nt	15.4	2.7	-0.8	-3.5	5.3	nt	2.9
CC(=O)NC(C)(c1ccccc1)c1nc(-c2cccc(C(F)(F)F)c2)cs1 (stereo not drawn)	3.8	33.2	1.7	-1.6	nt	nt	nt	nt
CCc1noc(C)c1C(=O)N(CCC(C)C)c1c(N)n(Cc2ccccc2)c(=O)[nH]c1=O	-0.7	-9.1	1.9	0.5	nt	nt	i	-4.9
COC(=O)c1cccc(NC(=O)COc2cccc([N+](=O)[O-])c2)c1	nt	-18.6	3.7	5.6	-4.8	4.8	i	-5.9
O=C(/C(=C/c1cccc(Cl)c1)c1nc2ccccc2[nH]1)c1ccccc1	nt	i	-15.4	-14.5	-4.7	4.8	i	79.9*
CCCCc1cc(=O)oc2cc(OC(C)C(=O)NCCN3CCOCC3)ccc12 (stereo not drawn)	-12.4	-1.2	0.3	-2.4	nt	nt	nt	nt
CCSc1nnc(NC(=O)CCn2c(=O)oc3ccccc32)s1	-14.8	16.8	-1.8	2.6	9.9	-11.2	i	7.7
O=C(C1COc2ccccc2O1)N1CCN(c2ccccc2Cl)CC1 (stereo not drawn)	nt	4.0	-1.5	-0.9	13.7	-2.5	i	-6.1
COc1ccc(C(=O)NCCCN2CCOCC2)cc1OC	-16.8	-17.5	3.2	2.8	-5.7	-10.8	i	-1.0
CC(C)(C)NC(=O)NC(=O)CN1CCN(c2ccc(O)cc2)CC1	-13.9	19.5	-8.8	-25.2	-6.8	-6.2	i	35.8
COc1ccc(C2=Nn3c(nnc3-c3ccccc3F)SC2)cc1OCC1CC1	-38.4	-21.8	4.4	-15.4	nt	nt	nt	56.9
Cc1ccccc1NC(=O)CSc1nc2ncc(Cl)cc2[nH]1	-1.7	-5.0	4.2	-2.6	9.2	-0.6	i	17.4
COc1ccccc1NC(=O)c1cc2cc(Br)ccc2cc1O	nt	57.2*	-9.9	-34.4	27.9	80.2*	i	106.1*	eIF4H inh retest=79.1*;PABP polyA inh retest=42.0
COc1ccc(NC(=O)c2cc(-c3ccc(OC)c(OC)c3)on2)cc1OC	-12.9	-46.9	2.8	4.4	1.4	-3.0	i	-2.4
C=CCNC(=O)c1nc2ccccc2s1	-11.5	-24.9	0.9	2.2	0.6	0.1	i	-3.5
CS(=O)(=O)c1ccc(C(=O)OCC(=O)NC(=O)Cc2ccccc2)cc1	-21.5	nt	0.4	1.5	nt	nt	i	-12.2
COc1ccc(C)cc1NC(=O)CN(C)S(=O)(=O)c1ccc2c(c1)c(=O)n(C)c(=O)n2C	-15.9	nt	-0.6	5.8	7.0	-7.2	i	nt
Cc1cc(N2CCCC2=O)cc(C)c1S(=O)(=O)NCCOc1ccccc1	-10.1	nt	0.1	-11.8	8.9	-8.5	i	-0.8
N#Cc1cc([N+](=O)[O-])cnc1Nc1ccccc1	nt	-5.9	0.9	2.1	-5.2	-5.2	i	-2.9
O=C(CSc1nnnn1C1CC1)Nc1cccc(S(=O)(=O)N2CCCC2)c1	11.8	1.4	0.3	-3.0	nt	nt	nt	nt
CC[C@]12c3[nH]c4cc(CCC(=O)N(C)C)ccc4c3CCN1C(=O)[C@@H](CC(=O)NC(C)(C)C)C[C@@H]2C(=O)N1CCN(C(=O)C2CC2)CC1	1.6	-8.1	0.5	2.2	nt	nt	nt	nt
CC(=O)Nc1ccc(CCCCc2ccccc2)cc1	-14.7	-8.3	-1.9	-4.0	nt	nt	nt	nt
C#CCOCCOCCOCCNc1nc(N2CCN(C(=O)Cn3cc(CC(C)O)nn3)CC2)nc(N2CCN(C(=O)[C@H]([C@@H](C)CC)n3cc(CCCN=C(N)N)nn3)CC2)n1 (stereo partly drawn)	-5.3	16.9	-4.1	2.4	-7.0	-5.0	i	-10.9
CCC(C)Sc1nc2c(cnn2-c2ccc(C)cc2)c(=O)[nH]1 (stereo not drawn)	-8.0	-6.8	2.3	4.1	-6.9	-5.3	i	-14.4
CNC(=O)N(O)C1N(/N=C/c2ccccc2F)C(=S)SC1(C)C (stereo not drawn)	-21.1	5.9	1.1	1.0	-9.2	7.2	i	-9.4
COc1cc(C2C(C(C)=O)=C(O)C(=O)N2c2ccc(Br)cn2)ccc1O (stereo not drawn)	-24.2	-3.1	-1.7	-2.3	8.0	4.5	i	-14.7
COc1ccc2[nH]c3c(=O)n4c(nc3c2c1)SCCC4	-17.0	-16.2	-2.3	0.0	0.8	-0.9	i	3.2
COc1ccc(C(=O)NC(=S)NNC(=O)c2ccccc2O)cc1	-18.9	5.1	7.0	-3.7	6.4	13.8	i	54.4
CCOC(=O)CSC1=C(C#N)C(c2ccccc2Cl)C(C(=O)OC)C(=O)N1 (stereo not drawn)	-9.6	-80.2	1.4	3.6	-3.8	-6.0	i	-1.1
O=C(O)CCCC(=O)NS(=O)(=O)c1ccc(Cl)cc1	2.9	-61.8	5.6	2.9	-7.8	-3.5	i	-1.2
CCCCCCCCCCCC(=O)NC(Cc1ccc(OC)c([N+](=O)[O-])c1)C(=O)O (stereo not drawn)	nt	4.8	14.9	3.4	7.3	-3.8	i	10.9
COc1ccc(C(CCc2cc(OC)c(OC)c(OC)c2)NC(C)=O)cc1 (stereo not drawn)	5.0	-4.9	1.8	2.3	nt	nt	nt	nt
CCSCc1nnc(SCC(=O)Nc2ccc(F)cc2)n1CC	nt	-6.5	6.7	3.7	-7.6	-1.8	nt	-22.4
O=C(CSc1nnc(-c2ccco2)n1Cc1ccco1)NCc1cccs1	nt	14.1	2.6	-0.2	1.3	-0.7	i	-7.7
Cc1nn(CCC#N)c2[nH]c(=O)cc(C(F)(F)F)c12	-8.1	14.8	0.9	3.8	15.0	-2.9	i	nt
CSc1nc2ccc(NS(=O)(=O)c3ccccc3F)cc2s1	nt	nt	2.7	3.7	5.0	-1.3	i	-3.4
Cc1ccc(N(CN2CCCC2=O)C(=O)c2ccc(C)c(C)c2)cc1	-3.3	-77.1	-7.1	0.1	12.3	-0.2	i	-12.8
CN(C1=C(NC(=O)c2ccccc2)C(=O)c2ccccc2C1=O)C1CCS(=O)(=O)C1 (stereo not drawn)	nt	-24.0	1.5	3.3	-14.8	-6.2	nt	14.3
COc1ccccc1NC(=O)C/C(N)=N/OCC(=O)Nc1cccc(Cl)c1	-13.2	0.6	-1.1	-0.8	nt	nt	nt	-8.9
COc1ccc([C@H]2CC(=O)C=C(c3cccc(OCc4ccccc4)c3)C2)cc1	-12.9	40.8	-6.8	0.9	nt	nt	nt	17.5
Cc1ccc(NC(=O)C(NC2CCCC2)c2ccccc2)cc1Cl (stereo not drawn)	nt	-2.5	-2.2	-1.7	1.4	2.9	i	11.0
CC(=O)Nc1ccc(NC(=O)c2cc(=O)c3cc(C)cc(C)c3o2)cc1	-23.9	-62.8	0.4	-1.3	-4.2	8.1	i	27.2
COC(=O)c1ccc(NC(=O)c2ccco2)cc1	-15.7	-49.0	-0.9	-2.3	-0.6	5.7	nt	-11.9
C=C1c2ccc(C)cc2NC(=O)N1c1ccccc1	nt	nt	nt	nt	8.4	9.2	i	-10.4
Fc1ccc(CSc2nnc3ccccn23)c(Cl)c1	-20.2	-8.1	6.3	7.3	2.1	-0.1	i	6.7
COc1cccc(NC(=O)CN(C)C(=O)C2CC(=O)N(CCc3ccc(OC)c(OC)c3)C2)c1 (stereo not drawn)	-3.4	6.2	1.0	0.5	nt	nt	nt	nt
CCc1cccc(CC)c1NC(=S)Nc1cccc(Cl)c1Cl	nt	5.1	-1.7	0.9	4.9	-4.6	i	-5.7
N#C/C(=C\c1cccnc1)C(=O)Nc1ccc(C(=O)O)cc1	nt	2.7	-3.6	-1.7	-5.5	1.7	i	-0.4
COC(=O)c1ccccc1NC(=O)Nc1ccc(C)cn1	nt	9.3	1.2	5.0	5.9	8.7	i	1.2
O=C(COC(=O)COc1ccc(Cl)cc1)Nc1ccc(N2CCOCC2)cc1	nt	-4.6	0.5	1.0	-7.1	0.2	nt	-8.2
COc1ccc(Cl)cc1S(=O)(=O)N1CCCC(C(=O)N2CCCC2)C1 (stereo not drawn)	-2.6	3.9	2.9	-0.3	8.9	2.4	i	-18.2
CCN(C(=O)c1cc2ccccc2o1)C12CC3CC(CC(C3)C1)C2	nt	nt	nt	nt	-7.1	3.0	i	nt
Cc1ccccc1N1CCN(C(=O)CCN2C(=O)c3ccccc3C2=O)CC1	-4.3	-8.8	-3.0	-1.7	-1.3	13.8	i	-9.3
COc1ccc(C(=O)Nc2ccc(NC(=O)c3ccco3)cc2)cc1	nt	-2.1	3.9	-1.0	0.9	-7.0	i	-8.2
O=C(NCC1CCCO1)/C(=C/c1ccc(Cl)cc1)NC(=O)c1ccccc1 (stereo not drawn)	nt	-1.0	-1.4	-1.9	19.1	-3.6	i	-24.8
O=C(Nc1cccc(S(=O)(=O)N2CCCCC2)c1)c1ccc2c(=O)n3c(nc2c1)CCCCC3	nt	nt	-2.3	-25.3	1.1	-2.5	i	13.5
O=C(Nc1ccc(S(=O)(=O)Nc2ccccn2)cc1)c1cccc(Br)c1	-2.2	1.5	1.0	-4.2	11.1	11.7	i	-4.8
CN(C)C(=S)NC1(C)CCS(=O)(=O)C1 (stereo not drawn)	-2.7	nt	13.5	2.4	1.9	-4.0	i	2.6

Further structures.
SMILES	UUG fidelity	HIV Env fusion	MT1-MMP act inh	MT1-MMP act inh RFP	PABP polyA inh	eIF4H inh	Rce1 inh	CSC inhib	others
Cc1ccc2nc(C)cc(N3CCOCC3)c2c1	-8.2	nt	2.4	1.5	0.2	3.5	i	12.7
Cc1cccc(NC(=O)COc2ccc(/C=C\c3[nH]c(=O)[nH]c(=O)c3[N+](=O)[O-])cc2)c1	nt	10.1	-3.3	-6.6	4.6	36.4	i	-6.8
CC(Cl)C(=O)NNC(=O)CNS(=O)(=O)c1ccccc1 (stereo not drawn)	nt	6.8	-1.0	-0.1	-5.3	-3.0	i	-0.1
CCCN1CCN(CCCNC(=O)CN2C(=O)C(CC)Oc3ccccc32)CC1 (stereo not drawn)	-3.7	-5.8	0.4	4.7	6.3	-4.5	i	-7.5
COc1ccc(OC)c(S(=O)(=O)NCCCN2CCCC2=O)c1	-11.5	-1.6	4.4	7.3	-1.6	-4.8	i	-7.7
CCOC(=O)N1CCC(NS(=O)(=O)c2ccc(NC(C)=O)c(Cl)c2)CC1	4.1	4.9	-0.6	-23.4	-3.7	8.6	nt	-10.7
Cc1cccn2c(/C=N/OCc3ccc(F)cc3)c(-c3ccc(Cl)cc3)nc12	-19.7	nt	-8.7	-8.9	-1.0	-7.3	i	63.1
CSC1=C(C#N)C2(CCCCC2)C(C(=O)Nc2ccccc2)=C(C)N1	5.4	18.6	0.2	-3.9	nt	nt	nt	nt

Compounds listed so far that contain a CF3 group (2):
SMILES	UUG fidelity	HIV Env fusion	MT1-MMP act inh	MT1-MMP act inh RFP	PABP polyA inh	eIF4H inh	Rce1 inh	CSC inhib	others
CC(=O)NC(C)(c1ccccc1)c1nc(-c2cccc(C(F)(F)F)c2)cs1 (stereo not drawn)	3.8	33.2	1.7	-1.6	nt	nt	nt	nt
Cc1nn(CCC#N)c2[nH]c(=O)cc(C(F)(F)F)c12	-8.1	14.8	0.9	3.8	15.0	-2.9	i	nt

Screening data: PubChem BioAssay, several laboratories

The list is partial (hit frequency here may not be typical).
